Bioassay records as filed in PubChem.
miR-21 FLuc: qHTS Assay for Modulators of miRNAs and/orActivators of miR-21. HeLa miR-21 FLuc reporter, luciferase, 48 h. Potency, µM (doses to about 38.3 µM), inactives show top-dose reporter change, positive = more light. 340,000 tested, under 10 active; active = well fitted rising curve with a large enough effect; inconclusive = small, poorly fitted or top-dose-only effect; inactive = no such curve, though single readings can be large or run the other way;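 further: % of control where 0% means no effect; miR-21 action dims this reporter so a rising signal means less miR-21 action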
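Luminescence from a firefly luciferase reporter carrying a miR-21 binding site downstream, stably expressed under a CMV promoter in HeLa cells that make miR-21 endogenously, reports miRNA modulation after 48 h compound exposure up to approximately 40uM final.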
Rango-impB inh: qHTS Assay for Inhibitors of Rango (Ran-regulated importin-beta cargo) - Importin beta complex formation; Rango CFP/YFP FRET sensor + importin beta, 45 min; AID 540263, 2011; Importin subunit beta-1 (Homo sapiens), Q14974; 340,000 compounds, 0.031% hits; Potency, µM (doses to about 92.2 µM), for the others: at the highest dose inhibition of complex formation; active = rising FRET ratio curve, often small or poorly fitted; inconclusive = mostly compound fluorescence or quenching in the first reads; inactive = flat curves in all reads;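 further: potency means the concentration at half of the fitted maximal effect; 0% = DMSO wells and 100% = buffer wells lacking importin beta; nearly all actives have a fitted effect of over 15% in size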
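FRET biosensor Rango (snurportin 1 IBB between N-terminal EYFP and C-terminal Cerulean), 50 nM in PBS/1 mM DTT/0.02% Tween-20/0.1% BSA, preincubated 5 min RT with compound; 0.125 microM importin beta added, 45 min RT, CFP/YFP FRET ratio read.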
Rango dissoc inh: qHTS Assay for Inhibitors of RanGTP induced Rango (Ran-regulated importin-beta cargo) - Importin beta complex dissociation; Snurportin-1 (Homo sapiens) + GTP-binding nuclear protein Ran (Homo sapiens) + Importin …; Biochemical FRET Rango-importin beta, RanGTP-induced dissociation; Potency, µM (doses to about 46.1 µM), inactives show top-dose activity change, negative = inhibition; 340,000 compounds, 0.071% hits; AID 540253, 2011; active means falling FRET ratio curve, often poorly fitted, with flat reads before Ran was added; inconclusive means other falling curves, or compound fluorescence or quenching; inactive means flat or rising ratio curve;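 further: potency means the concentration at half of the fitted maximal effect; % of control where 0% means no effect; nearly all actives have a fitted effect of over 45% in size; -100% = wells without RanGTP and RCC1; the record marks most hits as doubtful in a second field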
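Rango FRET biosensor (snurportin-1 IBB flanked by N-terminal EYFP and C-terminal CFP10) at 0.1 uM, with 0.25 uM importin beta in PBS, 1mM DTT, 0.02% Tween-20, 0.1% BSA. 0.6 uM Ran, 2mM GTP and 0.2 uM RCC1 were then added for 45 min at room temperature. Inhibition read as loss of FRET rise.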
GLA inh pH 4.5: qHTS Assay for Inhibitors of Human alpha-Galactosidase at pH 4.5. Alpha-galactosidase A (Homo sapiens), P06280. purified enzyme, 4-MU-alpha-Gal fluorescence, pH 4.5. activity change, negative = inhibition, % at 105 µM. 230,000 tested, under 10 active. AID 1467, 2008; inconclusive = small, poorly fitted or top-dose-only inhibition, or a rising curve; inactive = flat fitted curve, though single readings scatter; no compound was filed as active;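 further: 0% = full activity with enzyme and -100% = basal without enzyme; dose as in the result columns while the protocol names 77 µM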
Target sequence (P06280 whole entry, looked up): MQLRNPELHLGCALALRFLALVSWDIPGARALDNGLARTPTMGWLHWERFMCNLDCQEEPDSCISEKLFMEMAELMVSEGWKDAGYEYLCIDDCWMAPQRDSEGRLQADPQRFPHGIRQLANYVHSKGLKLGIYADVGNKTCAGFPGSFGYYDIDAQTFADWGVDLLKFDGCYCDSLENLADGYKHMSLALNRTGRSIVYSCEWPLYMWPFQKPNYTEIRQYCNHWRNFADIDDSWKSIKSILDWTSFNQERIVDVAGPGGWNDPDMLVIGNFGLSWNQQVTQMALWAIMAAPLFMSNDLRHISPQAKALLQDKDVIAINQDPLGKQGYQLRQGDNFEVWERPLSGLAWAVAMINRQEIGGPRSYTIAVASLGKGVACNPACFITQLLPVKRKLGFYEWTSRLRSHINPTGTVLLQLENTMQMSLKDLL
An asterisk follows results filed as active; u = inconclusive; x = not tested or not shown.

SMILES	miR-21 FLuc	Rango-impB inh	Rango dissoc inh	GLA inh pH 4.5
O=C(NCCc1ccc(Cl)cc1)C1CCN(C(=O)c2sccc2-n2cccc2)CC1	20%	1.0%	1%	5
CCOC(=O)N1CCN(C(=O)C2CC(=O)N(c3ccc(C)cc3)C2)CC1 (stereo not drawn)	x	-0.5%	-6%	x
COc1ccccc1N(CC(=O)Nc1cc(C)on1)S(=O)(=O)c1cccc(C(F)(F)F)c1	x	2.8%	0%	x
O=C(Nc1ccccc1C(=O)N1CCN(CCO)CC1)c1cccc([N+](=O)[O-])c1	0%	4.4%	1%	x
N#C/C(=C\c1cn(Cc2ccc(C#N)cc2)c2ccccc12)C(=O)NCc1cccs1	-3%	u	u	-2
CN(C)CCCNC(=O)c1cc(C(=O)Cc2ccccc2)c[nH]1	2%	-1.9%	-1%	5
C/C(=C(/NC(=O)c1ccccc1)C(=O)O)c1ccco1	-14%	0.0%	7%	-1
CC(=O)Nc1nc(-c2cccs2)cs1	-16%	3.5%	-11%	2
CCOc1c(N2CC(C)OC(C)C2)c(=O)c1=O (stereo not drawn)	-1%	6.6%	10%	4
COc1cc(/C=C/C(=O)c2ccc(NS(=O)(=O)c3ccc(C)cc3)cc2)cc(OC)c1O	u	u	u	-19
COc1ccc(NC(=O)CSc2nc(-c3ccncc3)nn2CC(=O)N2CCCC2)cc1	-1%	-1.7%	-7%	3
CCCCOc1ccc(-c2nnc(-c3ccco3)o2)cc1	-41%	0.3%	-10%	-7
CCN(CC)S(=O)(=O)c1cccc(-c2nc3n(n2)Cc2ccccc2-3)c1	-43%	3.2%	1%	2
COc1ccc(OCC(O)CN2CCCCCC2)cc1 (stereo not drawn)	-1%	6.5%	0%	-22
COc1ccc(Br)cc1CN1CCN(C(=O)c2cccc(OC)c2OC)CC1	1%	10%	-2%	3
CCOC(=O)C(=O)N=Nc1c(O)[nH]c2ccccc12	-5%	1.0%	0%	0
Cc1ccccc1NC(=O)Cc1nc(CSc2nnc(C3CCCCC3)n2N)cs1	0%	-2.5%	-1%	3
CCCC(=O)N(C1CC(C)C(C#N)(C#N)C1(C#N)C#N)N(C)C (stereo not drawn)	u	-0.2%	16%	0
O=C1COc2ccc(C(=O)COC(=O)c3cccnc3Cl)cc2N1	-4%	-0.1%	12%	-1
CCN(CC)CCC(C)OC(=O)c1ccc(O)cc1O (stereo not drawn)	0%	3.5%	-10%	-3
CCCN(CCC)CCCNS(=O)(=O)c1cc(Br)cc2c1N(C(C)=O)CC2	-5%	-2.4%	u	2
COc1ccccc1NCCC(=O)OCC(=O)Nc1ccccc1Cl	x	3.3%	1%	x
CC[C@H](C)[C@H](NS(=O)(=O)c1ccc(C)cc1)C(=O)N1CCC(C(=O)N[C@@H](C)C(=O)O)CC1	-2%	3.2%	-1%	7
COc1ccc(S(=O)(=O)N2CCN(CC(=O)NC(Cc3ccccc3)C(C)=O)CC2)cc1 (stereo not drawn)	x	-0.5%	14%	x
Cc1ccc(-n2c(=O)[nH]cc(C(=O)Nc3ccc4c(c3)OCO4)c2=O)cc1C	-1%	2.6%	-1%	2

Shown with values under each structure: six of the compounds above.
Order of results: miR-21 FLuc	Rango-impB inh	Rango dissoc inh	GLA inh pH 4.5
COc1ccc(NC(=O)CSc2nc(-c3ccncc3)nn2CC(=O)N2CCCC2)cc1
  -1%	-1.7%	-7%	3
CCCN(CCC)CCCNS(=O)(=O)c1cc(Br)cc2c1N(C(C)=O)CC2
  -5%	-2.4%	u	2
COc1ccc(Br)cc1CN1CCN(C(=O)c2cccc(OC)c2OC)CC1
  1%	10%	-2%	3
CN(C)CCCNC(=O)c1cc(C(=O)Cc2ccccc2)c[nH]1
  2%	-1.9%	-1%	5
COc1ccc(OCC(O)CN2CCCCCC2)cc1 (stereo not drawn)
  -1%	6.5%	0%	-22
O=C(Nc1ccccc1C(=O)N1CCN(CCO)CC1)c1cccc([N+](=O)[O-])c1
  0%	4.4%	1%	x

Going on with the list.
SMILES	miR-21 FLuc	Rango-impB inh	Rango dissoc inh	GLA inh pH 4.5
CCCC(=O)Nc1ccc(N2CCN(S(C)(=O)=O)CC2)cc1	-11%	0.0%	1%	3
O=C(O)c1ccccc1C(=O)NCC(O)c1ccccc1 (stereo not drawn)	-6%	0.2%	-9%	-1
CCC(=O)N/C=C/n1cnc2cc(C(F)(F)F)ccc21	-1%	-1.8%	u	2
COc1ccc(NC2=C(NCCO)C(=O)c3ccccc3C2=O)cc1	-9%	-0.5%	-7%	7
COc1ccc(C(=O)NC(=S)N2CCOCC2)cc1[N+](=O)[O-]	0%	0.0%	-2%	x
COc1cccc(Nc2nc(N)c([N+](=O)[O-])c(NCc3ccccc3)n2)c1	5%	-4.1%	9%	-5
COc1cc(C2N3CC4(C)CN2CC(C)(C3)C4)ccc1O (stereo not drawn)	-3%	-3.3%	0%	-17
CN(C)S(=O)(=O)N1CCN(C(=O)N2CCCCCC2)CC1	-3%	-0.3%	-2%	11
CCOC(=O)C(=Cc1cc(=O)c(OC)co1)C(=O)OCC	u	0.7%	-6%	2
COc1cccc(-c2c3c([nH]c(=O)c2C#N)CCc2cc(OC)ccc2-3)c1	-2%	u	u	u
O=S(=O)(c1ccc(-c2ccccc2)cc1)N1CCCC1	-11%	1.1%	1%	-1
c1ccc2c(CCc3ccncc3)cccc2c1	x	3.2%	-4%	x
CCC1(C)Cc2c(sc3c2c2ncnn2c2nnc(SCC(=O)NCc4ccco4)n32)CO1 (stereo not drawn)	26%	-2.0%	0%	-19
O=C(Nc1ncc2c(n1)-c1ccccc1CC2)c1ccc(F)cc1	2%	1.0%	10%	-11
NC(=O)C1CCCN(C(=O)c2ccc3oc(Cc4ccc(Cl)cc4)nc3c2)C1 (stereo not drawn)	-9%	-2.3%	-12%	x
CSc1nc(N2CCN(c3ccccc3Cl)CC2)c2ccccc2n1	-7%	0.8%	-18%	9
CCOC(=O)c1nnn(CC(=O)Nc2cc(Cl)ccc2C)c1C(=O)OCC	1%	-0.8%	13%	0
CNS(=O)(=O)c1cccc(C(=O)OCCCC(=O)c2ccccc2)c1	x	-0.4%	-16%	x
O=C(c1ccc2nc[nH]c2c1)N1CCN(S(=O)(=O)c2cccc(F)c2)CC1	x	-2.3%	7%	x
CCN(CC)C(=O)CSc1nnc(COc2ccc(OC)cc2)n1N	4%	3.5%	10%	-2
Cc1cccc(NC(=O)Cc2ccc(Br)cc2)n1	-51%	-8.2%	0%	x
O=S(=O)(Cc1ccccc1)N1CCn2c(nc3ccccc32)C1	1%	1.7%	7%	7
O=C(NCC1CCCN(Cc2ccc3c(c2)OCCO3)C1)c1ccc2c(c1)OCO2 (stereo not drawn)	0%	1.1%	1%	x
O=C(NCc1ccccc1Cl)C(=O)NCC(c1ccco1)N1CCOCC1 (stereo not drawn)	3%	-0.1%	-13%	-2
COc1cc(C(=O)N(C)CC2CCN(CCc3cccc(C(F)(F)F)c3)CC2)ccc1C	13%	0.4%	10%	x

The list goes on:
SMILES	miR-21 FLuc	Rango-impB inh	Rango dissoc inh	GLA inh pH 4.5
COc1ccc(S(=O)(=O)N2CCN(c3cnccn3)CC2)cc1OC	x	5.1%	-5%	x
Cc1[nH]n(-c2ccc([N+](=O)[O-])cc2)c(=O)c1C=NCCN1CCN(C(=O)C(C)C)CC1	-1%	1.7%	4%	-5
Cc1cccc(NS(=O)(=O)c2ccc(C)c(C(N)=O)c2)c1	1%	0.3%	-7%	4
COc1ccc(NC(=O)c2cccc(C(=O)Nc3ccc(OC)cc3)n2)cc1	-2%	x	x	8
COc1ccccc1-n1c(C)nc2cc(C(=O)O)ccc21	-8%	-2.4%	10%	-6
CCCCOc1ccc(C(=O)NCC(=O)NCCOc2ccccc2)cc1	x	-6.0%	-9%	x
OCCN=C(c1ccccc1)C12CN3CN(CN(C3)C1)C2	0%	6.8%	14%	8
CCc1noc(C)c1C(=O)N1CCSC1=Nc1cccc(Cl)c1C	15%	-1.7%	-9%	x
COCCNC(=O)C(=O)N/N=C(\C)CC(=O)Nc1cccc(C(F)(F)F)c1	0%	-7.9%	8%	3
Cc1ccc(C)c(NCC(=O)c2ccc(Cl)cc2)c1	0%	2.8%	3%	x
CC(/C=N/Nc1ncc(C)c(=O)[nH]1)=C\c1ccccc1	-36%	0.5%	20%	-3
O=C(NNS(=O)(=O)c1ccccc1)C1CCN(S(=O)(=O)c2ccccc2)CC1	-3%	4.9%	-14%	0
O=C(COc1ccc([N+](=O)[O-])cc1)NC(=O)NC1CCS(=O)(=O)C1 (stereo not drawn)	x	-1.9%	0%	x
CN(/C=C/C(=C/C=[N+](C)c1ccccc1)OCCCS(=O)(=O)[O-])c1ccccc1	-1%	u	-19%	-2
CCOC(=O)C(C)n1cnc2c(nnn2Cc2ccc(Cl)cc2)c1=O (stereo not drawn)	0%	10%	-20%	9
CCOC(=O)c1cccc(NC(=O)C2CCN(c3ncnc4c3nc3n4CCCCC3)CC2)c1	-6%	-1.7%	-14%	x
CCOc1ccccc1NC(=O)C1C2C=CC(C2)C1C(=O)O (stereo not drawn)	0%	-7.1%	8%	3
COc1ccc(CCNS(=O)(=O)c2ccc3c(c2)OCCO3)cc1	-4%	8.3%	9%	-1
O=C(Cc1ccc(NC(=O)C2CCCN(C(=O)C3CC3)C2)cc1)Nc1cccc(C(=O)N2CCCCC2)c1 (stereo not drawn)	x	-1.4%	-13%	x
N#Cc1ccccc1OCC(=O)NNC(=O)CNC(=O)c1cccc(Br)c1	x	1.9%	13%	x
COc1ccc(NC(=O)CCc2nc3ccccc3s2)c(OC)c1	1%	2.4%	2%	10
CC1CCN(c2nnc(-c3cccs3)c3ccccc23)CC1	-43%	-2.6%	u	-3
CCOc1cccc(C2/C(=C(/O)c3ccc4c(c3)CC(C)O4)C(=O)C(=O)N2Cc2cccnc2)c1 (stereo not drawn)	1%	-0.9%	-7%	x
CCOC(=O)c1ccc(NC(=O)Nc2ccc(Cl)cn2)cc1	-1%	-3.5%	15%	-5
N#C/C(=C\c1cn(CCOc2ccccc2)c2ccccc12)C(=O)NCC1CCCO1 (stereo not drawn)	2%	u	u	-20

The list continues.
SMILES	miR-21 FLuc	Rango-impB inh	Rango dissoc inh	GLA inh pH 4.5
COc1ccc(/C=C2\CCn3c2nc2ccccc2c3=O)cc1OC	-54%	u	-7%	x
CCC(NC(=O)c1ccccc1NC(=O)c1ccccc1)C(=O)OC (stereo not drawn)	1%	6.6%	0%	-1
CC(=O)Nc1c(C)nn(-c2ccc([N+](=O)[O-])cc2)c1C	-2%	0.2%	9%	-13
Cc1cc(C)n(C(=O)C23CC4CC(CC(C4)C2)C3)n1	-5%	x	x	2
COc1ccc(C2CC(c3ccc([N+](=O)[O-])cc3)=NN2C(=O)c2ccccc2)cc1OC (stereo not drawn)	-2%	0.6%	6%	x
CCOc1ccc(C2CC(c3cccc(C)c3)n3nc(N)nc3N2)cc1 (stereo not drawn)	-8%	-6.2%	-9%	3
CN(C)c1ccc(C=c2c3cc(O)ccc3n3c2cc(-c2ccccc2)[n+]3C)cc1	x	11%	-12%	x
CSC(SC)=C(C(C)=O)C(=O)c1ccc(C)cc1	-23%	0.6%	8%	0

Another view of part of the listing above.
miR-21 FLuc | Rango-impB inh | Rango dissoc inh | GLA inh pH 4.5 | Structure
-3% | 4.9% | -14% | 0 | O=C(NNS(=O)(=O)c1ccccc1)C1CCN(S(=O)(=O)c2ccccc2)CC1
x | -1.9% | 0% | x | O=C(COc1ccc([N+](=O)[O-])cc1)NC(=O)NC1CCS(=O)(=O)C1 (stereo not drawn)
-1% | u | -19% | -2 | CN(/C=C/C(=C/C=[N+](C)c1ccccc1)OCCCS(=O)(=O)[O-])c1ccccc1

An excerpt, so the mix of outcomes need not match the whole.
